KCNQ2 inh: KCNQ2 potassium channel inhibitors, primary screen, cell-based, CHO-K1, FluxOR thallium flux, B-score (AID 2156); 20 min; stronger effect = lower value; only compounds with negative scores are shown here; some inactives read as strong as hits; O88943; B-score at 10 µM; hit rate 1.1% among 310,000;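 active = fluorescence ratio B-score at most minus 3 library SDs, with starting brightness B-score within 2 library SDs, cut at about -5.5 in these data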
Target sequence (O88943 whole entry, looked up): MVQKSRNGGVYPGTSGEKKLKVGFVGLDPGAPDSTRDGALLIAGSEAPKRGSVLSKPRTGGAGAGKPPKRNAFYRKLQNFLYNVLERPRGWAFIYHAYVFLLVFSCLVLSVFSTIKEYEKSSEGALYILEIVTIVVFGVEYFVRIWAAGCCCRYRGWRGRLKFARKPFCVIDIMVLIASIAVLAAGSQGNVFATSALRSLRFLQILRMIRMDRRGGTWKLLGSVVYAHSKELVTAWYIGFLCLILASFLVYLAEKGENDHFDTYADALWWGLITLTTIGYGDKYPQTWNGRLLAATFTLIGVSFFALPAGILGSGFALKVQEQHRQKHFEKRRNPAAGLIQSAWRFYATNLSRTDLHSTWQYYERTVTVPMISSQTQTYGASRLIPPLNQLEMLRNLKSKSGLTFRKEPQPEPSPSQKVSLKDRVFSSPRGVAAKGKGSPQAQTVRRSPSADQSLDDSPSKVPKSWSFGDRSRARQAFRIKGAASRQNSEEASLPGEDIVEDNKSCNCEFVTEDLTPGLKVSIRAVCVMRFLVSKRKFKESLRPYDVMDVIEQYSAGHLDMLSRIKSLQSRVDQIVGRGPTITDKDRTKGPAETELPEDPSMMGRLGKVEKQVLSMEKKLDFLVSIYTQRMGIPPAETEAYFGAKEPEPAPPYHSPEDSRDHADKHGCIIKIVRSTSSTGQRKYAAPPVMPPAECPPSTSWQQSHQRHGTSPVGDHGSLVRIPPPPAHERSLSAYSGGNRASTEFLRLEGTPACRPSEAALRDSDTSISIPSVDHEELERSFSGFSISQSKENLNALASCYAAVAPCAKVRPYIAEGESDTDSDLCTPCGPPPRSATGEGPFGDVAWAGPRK
KCNQ2 inh baseline: recorded beside KCNQ2 inh, whose call it bears; B-score; measured here: initial fluorescence intensity artifact check;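 brightness before thallium and not channel activity; 0 = typical well and far values either way flag optical interference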
Starred values were filed as active, the others as inactive; i = inactive.

Molecule	KCNQ2 inh	KCNQ2 inh baseline
O=C(N/C(=C\c1cccc([N+](=O)[O-])c1)C(=O)N(CCO)CCO)c1ccco1	i	1.1
O=C(NCCN1CCOCC1)Nc1ccc(Cl)cc1Cl	i	-1.1
Oc1c(C(c2ccccn2)N2CCC(Cc3ccccc3)CC2)cc(Cl)c2cccnc12 (stereo not drawn)	i	0.44
C[C@@H]1C=C(C(=O)N2CCN(Cc3ccccc3)CC2)O[C@H](OCc2ccc(CO)cc2)C1	i	-1.3
COc1ccc(CNc2cccc(F)c2)cc1Br	i	0.56
Cc1csc(NC(=O)c2ccccc2O)n1	i	-1.8
CSc1nsc(SCC(=O)N2CCN(c3ccccc3)CC2)n1	i	0.08
Cc1ccc(S(=O)(=O)Nc2ccsc2C#N)cc1	i	0.06
O=C(c1ccncc1)N1c2ccccc2Sc2ccccc21	i	2.7
O=C(Nc1ccc(C(=O)N2CCN(c3ccc(F)cc3)CC2)cc1)C1=CSCCO1	i	-0.45
CCN(CC)S(=O)(=O)c1ccc(NC(=O)COC(=O)c2cc(S(=O)(=O)Nc3ccc(OC)cc3)ccc2O)cc1	i	0.15
CN(C(=O)c1cccc([N+](=O)[O-])c1)c1ccccc1C(=O)NCc1ccccc1	i	2.9
CC1CCCCN1C(=O)c1ccc(NC(=O)c2ccccc2Cl)cc1 (stereo not drawn)	i	3
CC1=C(C(=O)Nc2ccccc2C)C(c2ccc(C)o2)NC(=S)N1 (stereo not drawn)	i	-0.59
CCOC(=O)c1c(C)[nH]c(C(=O)OCC(=O)Nc2cc(Cl)ccc2OC)c1C	i	-0.78
Cc1ccccc1NC(=O)CCN1C(=O)CSC1=O	i	0.11
CC(=O)Nc1cccc(OCCCNS(=O)(=O)c2ccc(C#N)cc2)c1	i	-0.53
COc1ccc(NC(=O)CN(c2ccc([N+](=O)[O-])cc2)S(=O)(=O)c2ccccc2)cc1	i	1.4
O=C(COc1ccccc1-c1ccccc1)N/N=C/c1ccc2ccccc2c1	i	-0.3
Cc1cccc(N2CCC(N3CCN(C4CCCCC4)C(CCO)C3)CC2)c1C (stereo not drawn)	i	0.07

Ordered by count of non-hydrogen atoms (highest first): some entries from above
Molecule	KCNQ2 inh	KCNQ2 inh baseline
C[C@@H]1C=C(C(=O)N2CCN(Cc3ccccc3)CC2)O[C@H](OCc2ccc(CO)cc2)C1	i	-1.3
O=C(COc1ccccc1-c1ccccc1)N/N=C/c1ccc2ccccc2c1	i	-0.3
O=C(c1ccncc1)N1c2ccccc2Sc2ccccc21	i	2.7
Cc1ccc(S(=O)(=O)Nc2ccsc2C#N)cc1	i	0.06

The listing picks up with the 6 entries that preceded the break.
Molecule	KCNQ2 inh	KCNQ2 inh baseline
CCOC(=O)c1c(C)[nH]c(C(=O)OCC(=O)Nc2cc(Cl)ccc2OC)c1C	i	-0.78
Cc1ccccc1NC(=O)CCN1C(=O)CSC1=O	i	0.11
CC(=O)Nc1cccc(OCCCNS(=O)(=O)c2ccc(C#N)cc2)c1	i	-0.53
COc1ccc(NC(=O)CN(c2ccc([N+](=O)[O-])cc2)S(=O)(=O)c2ccccc2)cc1	i	1.4
O=C(COc1ccccc1-c1ccccc1)N/N=C/c1ccc2ccccc2c1	i	-0.3
Cc1cccc(N2CCC(N3CCN(C4CCCCC4)C(CCO)C3)CC2)c1C (stereo not drawn)	i	0.07
COc1ccc(/C=C2\SC(=S)N(CCCC(=O)N3CCN(C)CC3)C2=O)cc1	i	-2
Cc1cccc(OCc2nnc(SCC(=O)Nc3cc(C)on3)n2C)c1	i	-1.1
COc1ccc(C2CC(c3ccc(F)cc3)n3nc(NC(=O)c4ccco4)nc3N2)cc1 (stereo not drawn)	i	0.56
O=C(c1ccc([N+](=O)[O-])s1)N1CCc2ccccc2C1	i	-2.2
CCOC(=O)c1ccc(N2CN(CCc3ccccc3)CNC2=S)cc1	i	0.83
O=C(CN1CCCN(Cc2ccc(F)cc2Cl)C1=O)NCc1ccccc1	i	-0.06
CCc1sc(C(=O)N2CCN(c3ncccn3)CC2)cc1Br	i	-0.79
CC(C)(Cc1cccc(CC(C)(C)C(=O)O)c1)C(=O)O	i	1.6
Cn1c(N)c(C(=O)COC(=O)c2cc(-c3ccco3)nc3ccccc23)c(=O)n(C)c1=O	i	-2.4
CC(Oc1ccc2c3c(c(=O)oc2c1)CCC3)C(=O)NC1CCN(Cc2ccccc2)CC1 (stereo not drawn)	i	0.99
CCOC(=O)c1cc(-c2ccccc2)n(CCC(=O)N2CCN(c3ccccn3)CC2)c1C	i	0.07
O=S(=O)(c1ccc(NC(=S)Nc2ccccc2)cc1)N1CCOCC1	i	1.3
O=C(CCSc1nc2ccccc2s1)N/N=C/c1c(O)ccc2ccccc12	i	-0.85
CC(C)COc1cccc(C(=O)NNC(=O)C2COc3ccccc3O2)c1 (stereo not drawn)	i	-0.85
CN(C)CCN(C(=O)c1cc(Cl)sc1Cl)c1nc2ccc(F)cc2s1	i	1.6
CCCCC(CC)c1nnc(NC(=O)c2cccs2)s1 (stereo not drawn)	i	1
CC(=Nc1ccc(C)cc1C)c1sc2ccccc2c1O	i	-0.32
CC(C)(C)n1ncc2c(=O)n(CC(=O)NCc3ccc(F)cc3)cnc21	i	0.88
COCCN(CCOC)C(=S)Nc1ccccc1	i	0.3
CC1(C)C(=O)OC(c2cccn2-c2ccc([N+](=O)[O-])cc2)C2(CCCCC2)C1=O (stereo not drawn)	i	-0.01
CC1(C)Cc2c(ccc3ccccc23)C(c2cc3ccccc3oc2=O)=N1	i	0.17
Cc1ccc2cc(CN(C(=O)c3cccnc3)C(C)C)c(=O)[nH]c2c1	i	-1.9
O=C(O)C(Cc1c[nH]c2ccccc12)NS(=O)(=O)c1cccc(Cl)c1Cl (stereo not drawn)	i	-0.05
Cc1cccc(C)c1OCc1cc(C(=O)N(C)CCc2ccccn2)no1	i	-0.26
N#Cc1ccccc1COC(=O)c1cccnc1N	i	-1.3
CCOCCCNC(=O)/C=C1\Sc2ccccc2N(Cc2ccccc2F)C1=O	i	-0.59
C[C@@H]1CC[C@H]2C(=O)N3[C@@H](CC[C@@H](C)[C@@H]3c3ccc(Br)cc3)C(=O)N2[C@H]1c1ccc(Br)cc1	i	-0.73
O=C(COC(=O)c1ccc(Br)o1)Nc1nc2ccccc2s1	i	-1
COc1ccc(C(C)=O)cc1COC(=O)c1ccc2c(c1)OCO2	i	1.2
O=Cc1c(NCc2cccc(F)c2)c2ccccc2[nH]c1=O	i	0.03
Cc1onc(-c2ccccc2Cl)c1C(=O)Nc1ccc(Br)cc1	i	0.17
O=C(Nc1ccc2c(c1)OCO2)C1CC(c2ccc(Cl)cc2)=NO1 (stereo not drawn)	i	1.2
O=C(NNC(=O)c1ccco1)c1csc(N2CCOCC2)n1	i	0.71
S=c1[nH]nc(C2COc3ccccc3O2)o1 (stereo not drawn)	i	-1.9
Cc1c(C(=O)O)cccc1-c1ccc(/C=C2/NC(=O)N(c3ccccc3)C2=O)o1	i	0.58
COc1ccc(OC)c(Nc2cc(C)c3ccccc3n2)c1	i	0.77
O=S(=O)(c1ccc2c(c1)OCCO2)N1CCC(c2nc3ccc(Cl)cc3[nH]2)CC1	i	-1
CC(C)(C)NC(=O)CN(C(=O)Cn1nnc(-c2ccccc2F)n1)c1cccc2c1CCCC2	i	-2
COc1ccc(CC(=O)NC(C)c2nnc(SCc3nc4ccccc4c(=O)[nH]3)n2C)cc1 (stereo not drawn)	i	0.07
O=S(N1CCc2ccccc21)C12CC3CC(CC(C3)C1)C2 (stereo not drawn)	i	0.36
OC(CNCc1cccnc1)COc1ccc2ccccc2c1 (stereo not drawn)	i	-0.03
BrC(=C\c1ccccc1)/C=N/Nc1nc2ccccc2[nH]1	i	0.02
Cc1cc(N2C(=O)C(O)=C(C(=O)c3ccco3)C2c2ccc([N+](=O)[O-])cc2)no1 (stereo not drawn)	i	0.31
COc1ccc(C2c3ccc4ccccc4c3Oc3ncn(CCO)c(=N)c32)cc1OC (stereo not drawn)	i	1.3
SC(COCc1ccccc1)CN1CCN(Cc2ccc3c(c2)OCO3)CC1 (stereo not drawn)	i	-0.9
COC(=O)c1ccc(NC(=O)CSc2nnc(C(C)NC(=O)c3ccccc3Cl)n2C)cc1 (stereo not drawn)	i	-2.4
CNC(=O)N(C1=NCCCCC1)c1ccc(Br)cc1	i	0.36
Cc1ccc(C(=O)COC(=O)c2cc(=O)[nH]c3ccccc23)cc1C	i	1.2
COc1cccc(OC)c1C(=O)Nc1ccc(N2CCCCC2)cc1	i	0.21
CCN1CC=C2C(C#N)=C(N)C(C#N)(C#N)[C@H](c3ccoc3)[C@H]2C1	i	4.6
O=C(COc1coc(CN2CCc3ccccc32)cc1=O)Nc1ccc([N+](=O)[O-])cc1	i	0.88
Cn1nc(C(=O)NCc2cccnc2)c2ccccc2c1=O	i	1.8
CSc1nc(-c2ccccc2)cc(C)c1C#N	i	-1.6
O=C(NCCc1ccc2c(c1)OCCO2)c1ccc([N+](=O)[O-])cc1Cl	i	-0.65
Cc1cc(C)c[n+](CC(=O)c2ccc(-c3ccccc3)cc2)c1	i	1.3
CCOc1ccc2[nH]c(=O)c(C(c3nnnn3Cc3ccco3)N3CCCC(C)C3)cc2c1 (stereo not drawn)	-6.5*	2.3*
CCOC(=O)N1CCN(C(=O)c2ccc3c(c2)N(C)C(=O)/C(=C\c2ccc(OCC)c(OC)c2)S3)CC1	i	-0.05
CCCCNc1ncnc2c1nnn2Cc1ccccc1Cl	i	-0.04
CC(=O)NCCc1nc2cc(NC(=O)c3ccc(Cl)cc3)ccc2n1C	i	-0.08
Cc1cc(C(=O)CN2C(=O)NC3(CCCc4sccc43)C2=O)c(C)n1-c1ccccc1 (stereo not drawn)	i	0.37

Other compounds:
Molecule	KCNQ2 inh	KCNQ2 inh baseline
N#Cc1ccc(NC(=O)c2cc(-c3cccs3)on2)cc1	i	-1.1
NC(=O)CCC(NS(=O)(=O)c1ccc(Cl)cc1)C(=O)NCC1CCCCC1 (stereo not drawn)	i	2.7
CC(C)Oc1cc(NC(=O)CS(=O)(=O)CC(=O)N(C)C)c(Cl)cc1Cl	i	0.15
Cc1ccccc1C(=O)N1CCN(c2ccc(NC(=O)c3ccco3)cc2Cl)CC1	i	-0.98
OCc1ncc(-c2ccccc2)s1	i	4.3
O=C(Nc1ccc(Cl)cc1)c1sccc1-n1cccc1	i	1.5
CCN(CC)S(=O)(=O)c1cccc(-c2nnc(SCCOc3ccc(Cl)cc3)o2)c1	i	-2.5
O=C1CC(c2ccccc2)CC(O)=C1C=NCc1ccccc1 (stereo not drawn)	i	-0.25
Cc1ccc(Nc2c(-c3ccco3)nc3nc(C)cc(C)n23)cc1	i	0.44
O=C(CCS(=O)(=O)c1ccc(F)cc1)N1CCN(c2ccccc2)CC1	i	2.9
CNc1nc(-c2ccccc2)cc(-c2ccccc2)n1	i	-0.9
O=C(Nc1cccc([N+](=O)[O-])c1)c1ccc(N2CCCC2=O)cc1	i	-0.37
Cc1nn(Cc2cccc(C(=O)NC(C)c3ccc(C(C)(C)C)cc3)c2)c(C)c1[N+](=O)[O-] (stereo not drawn)	i	-0.43
O=C(COC(=O)c1ccc(Br)o1)Nc1ccc(S(=O)(=O)N2CCCC2)cc1	i	0.21
CCN(CC)C(=O)C(=O)c1c(-c2ccccc2)[nH]c2ccccc12	i	-0.6
O=c1nccc(Nc2ccccc2)[nH]1	i	0.28
O=C(Nc1sc2c(c1C(=O)O)CCC2)c1ccccc1Cl	i	0.73
Cn1cnc(S(=O)(=O)Nc2ccc(C(F)(F)F)cc2)c1	i	1.3
CC(C)(C)c1ccc(Oc2ccc(NC(=O)c3ccccc3C(=O)O)cn2)cc1	i	0.55
Cc1ccc(C(=O)NC(=S)Nc2cccc(NC(=O)c3ccccc3)c2)cc1[N+](=O)[O-]	i	0.16

Some values from the entries so far:
KCNQ2 inh baseline, `Cc1ccc(Nc2c(-c3ccco3)nc3nc(C)cc(C)n23)cc1` is entered as 0.44
KCNQ2 inh baseline, `CCN(CC)S(=O)(=O)c1cccc(-c2nnc(SCCOc3ccc(Cl)cc3)o2)c1` is entered as -2.5
KCNQ2 inh baseline, `O=C(Nc1sc2c(c1C(=O)O)CCC2)c1ccccc1Cl` is entered as 0.73

New compounds follow:
Molecule	KCNQ2 inh	KCNQ2 inh baseline
CCOC(=O)C1=C(CC)Nc2ccccc2N=C1NC(=O)CCNC(C)=O	i	-1.1
COc1ccc(-n2nc(C(=O)NCC(=O)NCCCN3CCCCCC3)c3ccccc3c2=O)cc1Cl	i	0.88
O=C(c1cc(C2CC2)on1)N1CCCC(N2CCN(c3ccc(F)cc3)CC2)C1 (stereo not drawn)	i	0.23
COc1ccc(C2c3c(oc4ccccc4c3=O)C(=O)N2Cc2ccncc2)cc1OC (stereo not drawn)	i	-1.1
C=CCNC(=S)N1CCC(C(N)=O)CC1	i	-1.2
COc1ccc(CC(=O)Nc2ccc(-c3csc(C)n3)cc2)cc1	i	0.51
COc1cc(NC(=O)c2sc(C)nc2C)c(OC)cc1NC(=O)c1ccccc1	i	0.25
CC(OC(=O)c1ccc(Cl)c(S(=O)(=O)N2CCOCC2)c1)C(=O)NC1CCCCC1C (stereo not drawn)	i	-1.2
Cn1cc(CN(CCCN2CCOCC2)C(=S)Nc2cccc(Cl)c2)c2ccccc21	i	0.86
CCC(C)[C@H](NC(=O)Nc1ccc2c(c1)OCCO2)C(=O)OC (stereo partly drawn)	i	-0.84
CCc1c(C)sc2nc3c(C(=O)N4CCOCC4)cc(C(=O)c4cc(F)ccc4O)cn3c(=O)c12	-8.5*	-0.05*
Cc1ccccc1Oc1cc(NC(=O)CCCn2nc(C)c([N+](=O)[O-])c2C)cc([N+](=O)[O-])c1	i	-0.01
Cc1ccc(C(=O)NC(=S)Nc2ccc3c(c2)OCCO3)c(C)c1	i	-0.78

Only part of the results is shown (hit frequency here may not be typical).
